# Compound activity as filed in PubChem BioAssay.
# PNC assembly inh = High Content Assay for Compounds that inhibit the Assembly of the Perinucleolar Compartment; PC3M PTB-GFP, PNC prevalence imaging, 16 h; stronger effect = lower value; activity change (PNC), negative = inhibition, % at 10 µM; 3.1% of 140,000 active; AID 2417, 2010;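 active = readout at or below -70, meaning at least 70% loss of cells showing the perinucleolar compartment, a nuclear body marking cancer cells; inconclusive = readout between -30 and a set limit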;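 note: plate controls were DMSO wells for no effect and camptothecin positive control wells for full effect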
#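 PC3M cells stably expressing PTB-GFP, 750–1000 cells/well, treated 16 h at 37 °C with compound (23 nl of library stock), in duplicate. After paraformaldehyde fixation and Hoechst stain, imaged at 20x; PNC prevalence scored by image analysis.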
# 15-hLO-2 inh = qHTS Assay for Inhibitors of 15-hLO-2 (15-human lipoxygenase 2) | Polyunsaturated fatty acid lipoxygenase ALOX15B (Homo sapiens), O15296 | purified 15hLO-2, xylenol orange hydroperoxide absorbance | Potency, µM (highest dose often 57.1 µM), for the others: at the highest dose activity change, negative = inhibition, actives largely listed as inhibitors | 0.56% of 110,000 active | AID 881, 2007; active = well fitted inhibition curve with a large enough effect; inconclusive = small, poorly fitted or top-dose-only effect; inactive = no such curve, though single readings can be large or run the other way; note: potency is the fitted concentration of half-maximal effect; nearly all actives have a fitted effect of over 60% in size; many of its hits are not listed in these tables
# Target sequence (O15296 whole entry, looked up): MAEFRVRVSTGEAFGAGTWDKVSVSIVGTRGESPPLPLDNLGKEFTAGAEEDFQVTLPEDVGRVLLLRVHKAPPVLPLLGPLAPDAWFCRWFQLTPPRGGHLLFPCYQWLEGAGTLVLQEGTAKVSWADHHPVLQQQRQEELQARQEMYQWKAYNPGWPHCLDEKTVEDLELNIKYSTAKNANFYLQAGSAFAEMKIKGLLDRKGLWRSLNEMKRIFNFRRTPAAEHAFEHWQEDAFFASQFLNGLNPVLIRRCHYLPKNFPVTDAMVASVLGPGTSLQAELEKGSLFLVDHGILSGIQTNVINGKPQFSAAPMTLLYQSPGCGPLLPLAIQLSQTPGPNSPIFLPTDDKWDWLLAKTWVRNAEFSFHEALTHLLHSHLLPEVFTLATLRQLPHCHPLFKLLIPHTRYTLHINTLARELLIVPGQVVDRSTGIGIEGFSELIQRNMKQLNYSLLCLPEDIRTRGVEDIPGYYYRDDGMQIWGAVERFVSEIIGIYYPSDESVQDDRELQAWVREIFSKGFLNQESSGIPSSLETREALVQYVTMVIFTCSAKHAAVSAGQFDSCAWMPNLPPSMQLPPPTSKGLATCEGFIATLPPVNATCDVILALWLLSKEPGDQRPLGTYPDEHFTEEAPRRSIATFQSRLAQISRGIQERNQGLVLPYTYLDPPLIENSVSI
#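 Read-out: hydroperoxide product oxidises ferrous iron, measured as xylenol orange complex via the 573-to-405 nm absorbance ratio after 30 min. Reaction: 50 nM enzyme, 15 min compound preincubation, 45 uM arachidonic acid, 90 min RT, Hepes pH 7.5 with Triton X-100.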
# The depositor's hits bear a star; ? = inconclusive; / = not tested or not shown; [ ] = dose if it differs, or a comment. Unless noted, % is set by controls: 0 for no effect and ±100 for the full control effect. Not all compounds are listed, and most or all hits are left out here.
1. CSc1ccc(S(=O)(=O)NCc2ccccc2Cl)cc1
2. CCC[C@@H]1C[C@@H](C(=O)NC(C(C)Cl)[C@H]2O[C@H](SC)[C@H](O)[C@@H](O)[C@H]2O)N(C)C1 (stereo partly specified)
3. CCN(c1ccc(NC(=O)COC(=O)c2ccc(S(=O)(=O)N3CCCC3)cc2)cc1)C(C)C
4. O=C(NC1CCCC1)c1cc(Cl)ccc1[N+](=O)[O-]
5. O=Cc1cccn1Cc1ccccc1[N+](=O)[O-]
6. Cc1oc(C(=O)Nc2ccc(O)cc2)cc1COc1ccccc1
7. CCC(C)n1c(C)nc2c(c1=O)c1nc3ccccc3nc1n2CCC1=CCCCC1 (stereo unspecified)
8. CCOc1cc(C(=O)N2CCN=C2SC)cc(OCC)c1OCC

assay / entry	1	2	3	4	5	6	7	8
PNC assembly inh	6	/	26	-26	-7	0	41	47
15-hLO-2 inh	-9%	-2%[0.0915 µM]	2%	/	/	-3%	-24%	2%

# Looked up by compound from the entries so far (2):
7. CCC(C)n1c(C)nc2c(c1=O)c1nc3ccccc3nc1n2CCC1=CCCCC1 (stereo unspecified)
4. O=C(NC1CCCC1)c1cc(Cl)ccc1[N+](=O)[O-]

assay / entry	7	4
PNC assembly inh	41	-26
15-hLO-2 inh	-24%	/

# Next compounds follow:
9. O=C(COc1ccc(Cl)cc1)Nc1ccccc1CO
10. COCCN(CCOC)C(=O)CCn1c(=O)oc2ccccc21
11. COc1ccc(OC2C(=O)N(Cc3ccc4c(c3)OCO4)C2c2cccs2)cc1 (stereo unspecified)
12. COc1c(Cl)cnn(-c2ccc(C)cc2)c1=O
13. COCCCNC(=O)CC(NS(=O)(=O)c1ccc(C)cc1)c1ccc(OC)cc1 (stereo unspecified)
14. O=S(=O)(c1cccc2nsnc12)N1CCN(c2ncccn2)CC1
15. CCOc1ccccc1C(=O)N(Cc1cccs1)C1CCS(=O)(=O)C1 (stereo unspecified)
16. Cc1ccc(OCCNC(=O)/C=C/c2ccc([N+](=O)[O-])cc2)cc1C

assay / entry	9	10	11	12	13	14	15	16
PNC assembly inh	-92*	317	11	0	-24	20	-27	63
15-hLO-2 inh	1%	/	-8%	5%	-1%	3%	-2%	-2%

17. CC(=O)Nc1cccc(NC(=O)CSc2nnc(Cc3cccn3C)n2-c2ccc(F)cc2)c1
18. Cc1sc2ncnc(N3CCN(c4ncccn4)CC3)c2c1C
19. COc1ccc(C2c3c(C)nn(-c4ccccc4)c3NC(=O)N2c2ccccc2)cc1 (stereo unspecified)
20. CCOCCCn1c(=N)c(C(=O)NCc2ccc3c(c2)OCO3)cc2c(=O)n3cccc(C)c3nc21
21. CCOc1cc(C)c(Cl)cc1S(=O)(=O)N(C)C
22. COc1ccc(Oc2nc3c(c(=O)n(C)c(=O)n3C)n2Cc2ccccc2)cc1
23. N#CC1=C(N)Oc2c(oc(CO)cc2=O)C12C(=O)Nc1ccc(Cl)cc12 (stereo unspecified)
24. CSCCC(NC=O)C(=O)NC(CC(C)C)C(=O)NC(Cc1ccccc1)C(=O)O (stereo unspecified)

assay / entry	17	18	19	20	21	22	23	24
PNC assembly inh	?	?	-3	-12	?	8	-10	/
15-hLO-2 inh	2%	0%	/	-7%	2%	-3%	10%	4%

25. Cc1ccc(SCc2nc(-c3cccnc3)no2)cc1
26. COc1ccc(C(=O)N/C(=C\c2cccs2)c2nc3ccccc3[nH]2)cc1OC
27. CCCC1=C(C(=O)OCC)C(c2ccc(OC)c(CSc3ccccn3)c2)C(C#N)=C(N)O1 (stereo unspecified)
28. O=C(/C=C/c1ccco1)Nc1nc(-c2ccccc2)cs1
29. NCCCCC(NC(CCc1ccccc1)C(=O)O)C(=O)N1CCCC1C(=O)O (stereo unspecified)
30. CCSc1nnc(NC(=O)CSc2nnc(Cc3cccn3C)n2-c2ccc(C)cc2)s1
31. Cc1ccc(S(=O)(=O)Nc2nc(C)cc(NCCN)n2)cc1
32. Cc1cc(C)nc(/N=C(\N)Nc2ccc(F)c([N+](=O)[O-])c2)n1

assay / entry	25	26	27	28	29	30	31	32
PNC assembly inh	-28	-20	-3	1	/	?	-28	31
15-hLO-2 inh	0%	24%	/	/	4%	-19%	0%	-2%

33. CCCC(C)c1nnc(NC(=O)c2cc(C(=O)OC)cc([N+](=O)[O-])c2)s1 (stereo unspecified)
34. Cn1c(=O)c2[nH]cnc2n(C)c1=O
35. CC(=O)c1ccc(NC(=O)C(C)OC(=O)C(C)Oc2cccc(C)c2)cc1 (stereo unspecified)
36. CC(=O)OCP(C)(=O)COC(C)=O
37. Cc1ccc([N+](=O)[O-])cc1NC1CC(O)C(CO)O1 (stereo unspecified)
38. O=S(=O)(NC1CCCCC1NCc1ccco1)c1ccc(Cl)cc1 (stereo unspecified)
39. Cc1ccc(-c2nc3c(cnn3-c3ccccc3)c(=O)o2)cc1

assay / entry	33	34	35	36	37	38	39
PNC assembly inh	41	7	-4	-27	-13	-4	-14
15-hLO-2 inh	-8%	6%	/	1%	/	-1%	5%

# In the list so far, these contain a halogen.
1. CSc1ccc(S(=O)(=O)NCc2ccccc2Cl)cc1
2. CCC[C@@H]1C[C@@H](C(=O)NC(C(C)Cl)[C@H]2O[C@H](SC)[C@H](O)[C@@H](O)[C@H]2O)N(C)C1 (stereo partly specified)
4. O=C(NC1CCCC1)c1cc(Cl)ccc1[N+](=O)[O-]
9. O=C(COc1ccc(Cl)cc1)Nc1ccccc1CO
12. COc1c(Cl)cnn(-c2ccc(C)cc2)c1=O
17. CC(=O)Nc1cccc(NC(=O)CSc2nnc(Cc3cccn3C)n2-c2ccc(F)cc2)c1
21. CCOc1cc(C)c(Cl)cc1S(=O)(=O)N(C)C
23. N#CC1=C(N)Oc2c(oc(CO)cc2=O)C12C(=O)Nc1ccc(Cl)cc12 (stereo unspecified)
32. Cc1cc(C)nc(/N=C(\N)Nc2ccc(F)c([N+](=O)[O-])c2)n1
38. O=S(=O)(NC1CCCCC1NCc1ccco1)c1ccc(Cl)cc1 (stereo unspecified)

assay / entry	1	2	4	9	12	17	21	23	32	38
PNC assembly inh	6	/	-26	-92*	0	?	?	-10	31	-4
15-hLO-2 inh	-9%	-2%[0.0915 µM]	/	1%	5%	2%	2%	10%	-2%	-1%
